Screens (PubChem BioAssay)
Rango complex inh: Rango-importin beta binding inhibition. Rango CFP/YFP FRET sensor + importin beta, 45 min. 340,000 tested, 0.031% active. Potency, µM (doses to about 92.2 µM), without a hit: at the highest dose inhibition of complex formation; active = rising FRET ratio curve, often small or poorly fitted; inconclusive = mostly compound fluorescence or quenching in the first reads; inactive = flat curves in all reads;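 also: potency is read from the fitted curve at half-maximal effect; 0% = DMSO wells and 100% = buffer wells lacking importin beta; nearly all actives have a fitted effect of over 15% in size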
Target sequence (Q14974 whole entry, looked up): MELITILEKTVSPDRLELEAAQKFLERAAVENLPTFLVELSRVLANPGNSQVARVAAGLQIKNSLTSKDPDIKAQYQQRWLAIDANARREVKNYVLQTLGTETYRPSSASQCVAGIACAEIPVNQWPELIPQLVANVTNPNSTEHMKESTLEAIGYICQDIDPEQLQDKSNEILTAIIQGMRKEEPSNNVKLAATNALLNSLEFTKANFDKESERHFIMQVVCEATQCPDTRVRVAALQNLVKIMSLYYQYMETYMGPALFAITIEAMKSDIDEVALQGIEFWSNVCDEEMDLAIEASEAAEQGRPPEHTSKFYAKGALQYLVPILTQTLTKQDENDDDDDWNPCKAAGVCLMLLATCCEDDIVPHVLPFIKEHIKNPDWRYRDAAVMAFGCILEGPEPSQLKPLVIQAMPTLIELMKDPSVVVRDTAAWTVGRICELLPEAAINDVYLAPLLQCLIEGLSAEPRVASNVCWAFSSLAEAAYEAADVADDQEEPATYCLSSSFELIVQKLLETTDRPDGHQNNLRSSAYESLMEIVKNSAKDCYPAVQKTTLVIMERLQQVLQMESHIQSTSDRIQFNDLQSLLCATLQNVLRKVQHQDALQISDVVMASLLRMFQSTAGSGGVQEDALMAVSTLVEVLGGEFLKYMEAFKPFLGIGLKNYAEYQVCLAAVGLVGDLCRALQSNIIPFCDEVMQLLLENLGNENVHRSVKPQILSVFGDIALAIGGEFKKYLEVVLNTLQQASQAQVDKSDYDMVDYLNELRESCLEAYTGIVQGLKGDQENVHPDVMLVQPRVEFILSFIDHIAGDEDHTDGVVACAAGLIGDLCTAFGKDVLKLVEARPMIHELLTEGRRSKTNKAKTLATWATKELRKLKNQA
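FRET biosensor Rango (snurportin 1 IBB between N-terminal EYFP and C-terminal Cerulean), 50 nM in PBS/1 mM DTT/0.02% Tween-20/0.1% BSA, preincubated 5 min RT with compound; 0.125 microM importin beta added, 45 min RT, CFP/YFP FRET ratio read.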
Rango dissoc inh: prevents RanGTP from dissociating the Rango-importin beta complex | Potency, µM (highest dose often 46.1 µM), for inactives: at the top dose activity change, negative = inhibition | O95149+P62826 | 340,000 tested, 0.071% active | Biochemical FRET Rango-importin beta, RanGTP-induced dissociation; active means falling FRET ratio curve, often poorly fitted, with flat reads before Ran was added; inconclusive means other falling curves, or compound fluorescence or quenching; inactive means flat or rising ratio curve;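 also: potency is read from the fitted curve at half-maximal effect; % of control where 0% means no effect; nearly all actives have a fitted effect of over 45% in size; -100% = wells without RanGTP and RCC1; the record marks most hits as doubtful in a second field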
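Quantitative HTS using a FRET biosensor: 0.1 uM Rango, 0.25 uM importin beta, 0.6 uM Ran, 2 mM GTP, 0.2 uM RCC1 final, PBS with DTT, Tween-20 and BSA. Post-read taken 45 min after Ran addition.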
miR-21 reporter: miR-21 reporter, rising signal | HeLa miR-21 FLuc reporter, luciferase, 48 h | Potency, µM (series often up to 38.3 µM), for inactives: at the top dose reporter change, positive = more light | 340,000 tested, under 10 active; active = well fitted rising curve with a large enough effect; inconclusive = small, poorly fitted or top-dose-only effect; inactive = no such curve, though single readings can be large or run the other way;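 also: % of control where 0% means no effect; miR-21 action dims this reporter so a rising signal means less miR-21 action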
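HeLa cells stably expressing CMV-driven firefly luciferase with a downstream miR-21 binding sequence, endogenously expressing miR-21, were treated with titrations (up to about 40uM final) for 48 hours at 37 degree Celsius. Luciferase luminescence was read after lysis.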
GLA inh pH 4.5: alpha-galactosidase A (human) inhibition, pH 4.5 | purified enzyme, 4-MU-alpha-Gal fluorescence, pH 4.5 | activity change, negative = inhibition, % at 105 µM | 230,000 tested, under 10 active; inconclusive = small, poorly fitted or top-dose-only inhibition, or a rising curve; inactive = flat fitted curve, though single readings scatter; no compound was filed as active;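 also: 0% = full activity with enzyme and -100% = basal without enzyme; dose as in the result columns while the protocol names 77 µM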
* hit, by the source's call; ? = inconclusive; . = not tested or not shown; & = joins results of further samples. Some of the compounds tested (hit frequency here may not be typical).

SMILES	Rango complex inh	Rango dissoc inh	miR-21 reporter	GLA inh pH 4.5
COCCn1c(N)c(C(=O)Nc2sc3c(c2C(=O)OC)CCCC3)c2nc3ccccc3nc21	-3.9%	-20%	-4%	-9
CCOC(=O)C1CCN(C(=O)c2c(-c3ccccc3)noc2C)CC1	?	18%	0%	-24
COc1ccc(CNC(=O)Cn2cc([N+](=O)[O-])nc2C)cc1	4.6%	-11%	-2%	2
CCOC1=NN(c2ccccc2)C(=O)/C1=C\N(C)C	1.2%	18%	0%	7
CCC(CC)NCCOC(=O)c1ccc([N+](=O)[O-])cc1	0.7%	-13%	3%	2
COc1ccnc(Oc2ccc(F)cc2)c1-c1ncn[nH]1	-2.0%	-4%	1%	7
COc1cccc2cc(C(=O)C3=C(O)C(=O)N(CCN4CCOCC4)C3c3ccc(C)o3)oc12 (stereo unspecified)	?	-3%	-10%	.
O=C(Nc1nnc(C2CC2)s1)c1cccc(S(=O)(=O)N2CCc3ccccc32)c1	0.7%	-14%	-3%	1
C=CCSc1ccsc1C(=O)O	?	6%	-1%	4
c1ccc2c(-c3cc(C4CCNCC4)[nH]n3)cccc2c1	5.2%	42%	-11%	13
O=C(Nc1ccccc1)N1C(=O)C2(OCCO2)c2ccccc21	-0.1%	5%	-18%	2
CCOc1cc(N2CCOCC2)c(OCC)cc1NC(=O)c1ccc(OCc2c(C)noc2C)c(OC)c1	0.2%	-22%	-3%	2
O=C1C2CC=CCC2C(=O)N1c1ccc(NCCc2cccc(F)c2)c([N+](=O)[O-])c1 (stereo unspecified)	4.9%	-7%	1%	-14
COc1cc(NC(=O)c2ccc(Br)cc2)ccc1NC(=O)c1cc2ccccc2o1	2.3%	-2%	-2%	.
CN1CCN(C(=O)c2ccc(CNS(=O)(=O)c3ccc(F)c(Cl)c3)cc2)CC1	-0.2%	-6%	4%	.
CCOC(=O)c1ccc(NC(=O)CCOc2ccccc2)cc1	0.7%	13%	-13%	6
CCn1c(CNc2ccc(Cl)cc2)nnc1SCC(=O)OC1CCCCC1	-0.9%	-12%	0%	-10
O=C(NC1CCCC1)C1CCC(CNS(=O)(=O)c2cccs2)CC1 (stereo unspecified)	-0.3%	-18%	-5%	-23
CCc1nnc(NS(=O)(=O)c2ccc(NC(=S)NC(=O)c3ccc(Br)cc3)cc2)s1	0.0%	28%	-17%	0
Cc1cc(NC(=O)CCC2CCCCC2)no1	-2.0%	-11%	-77%	5
COc1ccccc1N1CC(C(=O)Nc2nnc(SCc3cccnc3)s2)CC1=O (stereo unspecified)	0.6%	1%	0%	.
Cc1cccc(C(=O)NC(=S)NNC(=O)c2ccccc2Cl)c1	-0.7%	1%	-24%	-4
Brc1ccc(CSc2nnc(-c3ccccn3)n2Cc2ccco2)cc1	-2.6%	-2%	25%	11
CC(=O)Nc1nonc1NC(=O)COc1ccccc1	0.5%	-17%	-1%	8
CC(=O)C1=C(C)NC(=O)NC1c1ccccc1 (stereo unspecified)	0.2%	9%	0%	3
Cc1cccc(NC(=O)Cc2coc3ccc4ccccc4c23)n1	6.3%	33%	16%	-8
O=C(c1ccc(S(=O)(=O)Nc2ccccc2F)cc1)N1CCN(c2ccccc2O)CC1	3.5%	28%	.	.
Cc1cc(=O)n2nc(N3CCCC(C(=O)NCCC4=CCCCC4)C3)sc2n1 (stereo unspecified)	0.2%	10%	-6%	-1
Cn1ncc(C#N)c1/N=C/N(Cc1ccccc1)Cc1ccccc1	0.7%	11%	-2%	-9
CCOc1ccc(NC(=O)COC(=O)c2ccc3c(c2)OCCO3)cc1	-1.8%	-5%	.	.
CC(OC(=O)C1CCC1)C(=O)Nc1cc(Cl)cc(Cl)c1 (stereo unspecified)	0.6%	-17%	.	.
CC(C)(C)c1ccc(OCCCC(=O)NNC(=O)c2ccccc2O)cc1	-0.3%	-14%	.	.
N#CCCn1cc(/C=C(\C#N)c2nc3ccccc3s2)c(-c2ccc(F)cc2)n1	?	?	-4%	2
O=C(Nc1ccc(Cl)c([N+](=O)[O-])c1)c1ccncc1	-0.7%	-7%	-10%	-6
O=S1(=O)CCOC[C@H](CC2CCCCC2)N1Cc1ccc(Cl)cc1	-3.6%	-18%	1%	.
COc1ccc(CCC(=O)N2CCCC(Nc3ccc(C)c(C)c3)C2)cc1OC (stereo unspecified)	4.3%	-11%	-3%	.
Cc1c(C(=O)O)oc2c1ccc1ccccc12	3.9%	10%	-7%	-10
O=C(NCCc1cccc(F)c1)C1CCCN(c2nc3ccccc3s2)C1 (stereo unspecified)	1.5%	23%	-1%	.
Cc1ncc([N+](=O)[O-])n1CC(C)O (stereo unspecified)	-0.2%	2%	-2%&-4%	-5&0&-5
O=C(Nc1cccc(S(=O)(=O)N2CCCCC2)c1)c1cncc(Br)c1	-3.1%	4%	.	.
CCN(CC)S(=O)(=O)c1ccc(N2CCOCC2)c(NC(=O)c2ccccc2)c1	-1.2%	-5%	0%	-3
O=C(CCC(=O)Nc1ccccc1)NNC(=O)c1ccco1	-2.8%	14%	-6%	1
CCCCNC(=O)c1onc(CSc2ccc(F)cc2)c1C(=O)O	0.2%	2%	1%	7
Cc1cc(-c2ccc(C)c(S(=O)(=O)NCC3CCN(Cc4ccccc4F)CC3)c2)on1	-1.7%	-3%	12%&2%	.
CCN(CC)c1nc2c3c(nc4c(c3c1C#N)CC(=O)N4c1ccc(Cl)cc1)NC(C)=N2	?	?	4%	-15
COc1cc2c(cc1OC)C(O)C(O)(CO)C(C(=O)O)C2c1cc(OC)c(OC)c(OC)c1 (stereo unspecified)	1.5%	30%	.	.
O=C(O)/C(=C\c1ccc(Br)cc1)NC(=O)c1cccs1	2.0%	-10%	-1%	.
CC1CCc2ccccc2N1C(=N)N(C)C (stereo unspecified)	-1.9%	24%	0%	-20
COc1ccc(CCNC(=O)CSc2nnc3c(n2)[nH]c2ccc(F)cc23)cc1OC	-0.7%	-9%	0%	.
Cc1nc2cc(-c3ccc(F)cc3)nn2c(N2CCOCC2)c1C	.	.	-34%	11
O=C(CCC(=O)c1ccc(-c2ccccc2)cc1)Nc1cccnc1	0.4%	-8%	-8%	-9
Cc1ccc(C(=O)N2CCN(c3ncccn3)CC2)cc1S(=O)(=O)N1CCCCC1	2.3%	7%	-14%	-3
NNc1nc(-c2ccccc2)cs1	?	-26%	-51%	-1
O=C(Nc1ccc(S(=O)(=O)Nc2nccs2)cc1)c1cc(=O)[nH]c2ccccc12	?	0%	8%	-2
O=C1CSCC(=O)N1c1ncc(C(F)(F)F)cc1Cl	2.1%	-7%	3%	2
Cc1ccc(N2CCN(C(=O)c3cc(-c4ccc(F)cc4)[nH]c3C)CC2C)cc1 (stereo unspecified)	0.4%	-1%	20%	.
CCCCCCC(=O)Nc1nc(C)c(-c2csc(Nc3ccc(Cl)cc3)n2)s1	1.3%	2%	-2%	-11
O=C(Cc1ccccc1)Nc1ccccc1C(=O)Nc1ccc(C(=O)O)cc1	-2.4%	-5%	-6%	-5
CCOC(=O)Cn1c(=O)oc2cc(S(=O)(=O)Nc3c(C)cc(C)cc3C)ccc21	1.4%	12%	1%	-2
N/C(=N\OC(=O)Cc1ccccc1)c1cccc(Br)c1	-0.8%	8%	-37%	-7

3 compounds from above, sorted by length of the SMILES, descending:
SMILES	Rango complex inh	Rango dissoc inh	miR-21 reporter	GLA inh pH 4.5
Cc1ccc(C(=O)N2CCN(c3ncccn3)CC2)cc1S(=O)(=O)N1CCCCC1	2.3%	7%	-14%	-3
O=C(CCC(=O)Nc1ccccc1)NNC(=O)c1ccco1	-2.8%	14%	-6%	1
CC1CCc2ccccc2N1C(=N)N(C)C (stereo unspecified)	-1.9%	24%	0%	-20

The list goes on:
SMILES	Rango complex inh	Rango dissoc inh	miR-21 reporter	GLA inh pH 4.5
CCCc1nnc(NC(=O)c2cc3ccccc3o2)s1	-2.7%	?	-45%	.
COc1ccc(N(Cc2cc3ccc(C)cc3[nH]c2=O)C(=O)c2ccco2)cc1	0.2%	-2%	-2%	4
CN1CCN(C(=S)Nc2ccc(Cl)cc2)CC1	3.1%	1%	-10%	3
CC(C)(C)NC(=O)CC(CC(=O)O)c1ccccc1 (stereo unspecified)	-2.2%	-2%	-3%	3
COc1cc(OC)cc(-c2c(C#Cc3ccsc3)c3cc(-c4cccc5[nH]cc(C=O)c45)ccc3n2C)c1	?	?	.	.
Cn1c(=O)c2c(nc(Sc3n[nH]c(N)n3)n2Cc2ccccc2Cl)n(C)c1=O	?	-12%	1%	-4
O=C(NC(Cc1ccccc1)C(=O)N1CCN(S(=O)(=O)c2ccccc2F)CC1)c1ccccc1 (stereo unspecified)	-0.5%	18%	.	.
CCOC(=O)C1(CC2CCCCO2)CCN(C(=O)Nc2cccc(SC)c2)CC1 (stereo unspecified)	1.9%	3%	-1%	3
C=CCSC1=C(C#N)C(c2ccccc2Cl)CC(=O)N1 (stereo unspecified)	0.6%	-13%	-2%	-6
O=C(CCCN1C(=O)c2ccccc2C1=O)NCC1CCCO1 (stereo unspecified)	0.6%	-13%	-3%	-5
Cc1ccc(Cl)cc1NC(=O)CCC(=O)Nc1cc(Cl)ccc1C	0.5%	-10%	0%	-1
O=c1c2ccccc2nnn1CSc1ccccc1	0.7%	11%	-16%	-12
COC(=O)N/N=C/c1cc(Cl)c(OCc2ccccc2F)c(OC)c1	-0.4%	0%	0%	-3
CC(Sc1ncnc2sc(-c3ccccc3)cc12)C(=O)N1CCNC1=O (stereo unspecified)	-1.7%	18%	.	.
CN(C)C(=O)[C@@H]1C[C@H]1[C@@H](NC(=O)OCc1ccccc1)c1ccccc1	-0.3%	-5%	0%	1&1
CCn1ccnc1CN(C)C(=O)c1cc(COc2ccc(-n3cncn3)cc2)on1	-1.3%	10%	1%	.
CN(C)S(=O)(=O)Nc1ccccc1C(N)=O	-2.7%	2%	-3%	4
COc1ccccc1CCNC(=O)c1ccc(OC)c(OC2CCN(C(C)C)CC2)c1	0.9%	-1%	-5%	.
Cn1c(SCC(=O)Nc2ccc3nc(SCC(=O)N4CCCC4)sc3c2)nnc1-c1ccccc1	-4.8%	-7%	9%	2
COc1ccc(CN2C(=O)C(C)Nc3ncnc(N4CCOCC4)c32)cc1 (stereo unspecified)	-3.5%	4%	.	.
COCCN(C(=O)CSCc1ccc(C)cc1)c1c(N)n(CC(C)C)c(=O)[nH]c1=O	-3.7%	0%	.	.
Cc1ccsc1C(=O)OCC(=O)Nc1ccc(Cl)cc1C(F)(F)F	-1.0%	-7%	-8%	2
Cc1nnc(SCC(=O)NC(=O)NC(C)(C)C)s1	-2.5%	3%	3%	-4
O=C(O)c1cc(S(=O)(=O)N2CCOCC2)c[nH]1	0.5%	17%	.	.
N#CC1=C(S)N=C(N)C(c2nc(-c3ccccc3)cs2)C12CCCCC2 (stereo unspecified)	5.6%	-10%	-2%	-2
Cc1ccc(C(=O)OCC(=O)NCc2cccs2)c(C)c1	-2.3%	?	-39%	11
Cc1ccc(Nc2nc(N)nc(CSc3nnnn3-c3ccccc3)n2)cc1	-5.2%	7%	-5%	-6

Compounds above that have an NH in an aromatic ring, in the order listed:
SMILES	Rango complex inh	Rango dissoc inh	miR-21 reporter	GLA inh pH 4.5
COc1ccnc(Oc2ccc(F)cc2)c1-c1ncn[nH]1	-2.0%	-4%	1%	7
c1ccc2c(-c3cc(C4CCNCC4)[nH]n3)cccc2c1	5.2%	42%	-11%	13
COc1ccc(CCNC(=O)CSc2nnc3c(n2)[nH]c2ccc(F)cc23)cc1OC	-0.7%	-9%	0%	.
O=C(Nc1ccc(S(=O)(=O)Nc2nccs2)cc1)c1cc(=O)[nH]c2ccccc12	?	0%	8%	-2
Cc1ccc(N2CCN(C(=O)c3cc(-c4ccc(F)cc4)[nH]c3C)CC2C)cc1 (stereo unspecified)	0.4%	-1%	20%	.
COc1ccc(N(Cc2cc3ccc(C)cc3[nH]c2=O)C(=O)c2ccco2)cc1	0.2%	-2%	-2%	4
COc1cc(OC)cc(-c2c(C#Cc3ccsc3)c3cc(-c4cccc5[nH]cc(C=O)c45)ccc3n2C)c1	?	?	.	.
Cn1c(=O)c2c(nc(Sc3n[nH]c(N)n3)n2Cc2ccccc2Cl)n(C)c1=O	?	-12%	1%	-4
COCCN(C(=O)CSCc1ccc(C)cc1)c1c(N)n(CC(C)C)c(=O)[nH]c1=O	-3.7%	0%	.	.
O=C(O)c1cc(S(=O)(=O)N2CCOCC2)c[nH]1	0.5%	17%	.	.
